Source: PubChem BioAssay (several laboratories)
RecA intein inh – Mtb RecA intein splicing inhibitors, primary screen, biochemical, fluorescence, HTS; cell-free RecA intein splicing; 290,000 compounds, 0.75% hits; inhibition, %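 (about 9 µM by stock and volumes)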; in the data active = inhibition above about 30%; inconclusive = no clear call, values can overlap the other calls;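 note: 0% = vehicle wells and 100% = reference inhibitor control wells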
Target sequence (P9WHJ3 whole entry, looked up): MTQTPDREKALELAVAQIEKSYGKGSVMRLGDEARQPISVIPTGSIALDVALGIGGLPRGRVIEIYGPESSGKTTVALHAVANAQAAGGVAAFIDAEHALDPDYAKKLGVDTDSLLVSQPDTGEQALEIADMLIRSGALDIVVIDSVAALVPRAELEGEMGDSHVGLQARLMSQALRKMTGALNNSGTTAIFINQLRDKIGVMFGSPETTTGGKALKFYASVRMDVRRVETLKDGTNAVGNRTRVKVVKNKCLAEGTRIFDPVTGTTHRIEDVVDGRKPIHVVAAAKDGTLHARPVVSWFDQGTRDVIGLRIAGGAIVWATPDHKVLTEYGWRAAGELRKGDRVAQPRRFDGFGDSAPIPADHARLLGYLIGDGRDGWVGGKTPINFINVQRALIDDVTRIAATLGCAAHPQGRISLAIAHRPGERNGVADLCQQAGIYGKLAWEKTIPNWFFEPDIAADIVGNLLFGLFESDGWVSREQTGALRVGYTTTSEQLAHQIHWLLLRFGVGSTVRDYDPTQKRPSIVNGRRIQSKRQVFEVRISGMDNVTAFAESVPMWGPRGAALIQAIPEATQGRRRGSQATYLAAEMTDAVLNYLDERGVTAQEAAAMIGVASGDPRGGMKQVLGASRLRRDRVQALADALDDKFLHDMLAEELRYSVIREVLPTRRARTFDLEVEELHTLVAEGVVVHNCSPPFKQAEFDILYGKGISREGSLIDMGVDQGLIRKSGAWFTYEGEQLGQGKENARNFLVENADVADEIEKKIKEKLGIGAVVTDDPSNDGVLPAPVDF
Arbovirus inh – antivirals against arbovirus infection, primary screen, cell-based, full library, 10K replicate subset; arbovirus infection cell-based antiviral screen; inhibition, % at 10 µM; 200,000 compounds, 0.37% hits; AID 1251, 2008;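 active = inhibition from about 30%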;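 note: bluetongue infection of BSR cells; cell survival read as ATP light after 72 h; 0% = infected wells without compound and 100% = uninfected wells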
YopH inh – YopH tyrosine phosphatase inhibitors, primary screen, biochemical, fluorescence Ex485/Em525 | inhibition, %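 (about 10 µM by stock and volumes)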 | 140,000 compounds, 0.16% hits;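 active = inhibition of 50% or more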;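 note: controls were vehicle for no effect and minimum signal wells for full effect; inactives centre near -20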
Mtb H37Rv – M. tuberculosis H37Rv growth inhibitors, H37Rv strain (AID 1626) | M. tuberculosis H37Rv growth inhibition; higher % means a stronger effect | 220,000 compounds, 0.95% hits | inhibition, % at 10 µM, or IC50 in µM where a hit was titrated;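 active = confirmed in a dose series; inconclusive = inhibition above 80% but not taken into the dose series; inactive = below 80% or under 30% at every dose of the series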;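 note: bacteria incubated seven days before Alamar blue readout; 0% = bacteria only wells and 100% = bacteria with antibiotic wells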
Mtb betalactam – beta-lactam sensitization of Mtb H37Rv, H37Rv; M. tuberculosis H37Rv growth with meropenem, percent inhibition; hits of this screen are not shown here; inhibition, % at 25 µM; 330,000 compounds, 0.27% hits;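 active = about 74% or more and at least 40 points above the plate without the antibiotic, then above 30% in a dose series; inconclusive = first-round hits that could not be retested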;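 note: growth measured after seven days incubation then overnight dye step; 0% = bacteria only wells and 100% = bacteria with antibiotic; twin plates without the antibiotic show which effects depend on it; some results filed as inactive read as strong as hits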
Arbovirus inh repeat – further read-out of Arbovirus inh, marked with its call; inhibition, %; measured here: 10K subset replicate screen; many hits read low in the repeat;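 first of two repeat runs on a subset; 0% = infected and 100% = uninfected wells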
* hit, by the source's call; ? = inconclusive; . = no result given.

Start of the data: the first two records as a preview:
SMILES	RecA intein inh	Arbovirus inh	YopH inh	Mtb H37Rv	Mtb betalactam	others
Cc1ccc(CSCC(=O)N2CCN(c3ccc(F)cc3)CC2)cc1	-0.3	13	-101	4%	20
OCCNC(=S)Nc1ccc(Oc2ccccc2)cc1	2.1	-3	.	2%	-8

The listing (from the top)
SMILES	RecA intein inh	Arbovirus inh	YopH inh	Mtb H37Rv	Mtb betalactam	others
Cc1ccc(CSCC(=O)N2CCN(c3ccc(F)cc3)CC2)cc1	-0.3	13	-101	4%	20
OCCNC(=S)Nc1ccc(Oc2ccccc2)cc1	2.1	-3	.	2%	-8
CCCc1ccccc1OCCNC(=O)c1cc(=O)n(C)c(=O)n1C	-1.2	5	.	2%	4
COC(=O)c1c(NC(=O)c2ccnn2C)sc(C)c1C	-1.1	.	-24	-6%	-9
CCc1nn(C(C)C(=O)N(C)Cc2ccccc2)c(=O)c2cc3occc3n12 (stereo unspecified)	3.0	.	.	.	-6
O=C(NC1CCCC1)C(Cc1ccccc1)n1cccc1 (stereo unspecified)	-7.1	-2	-24	-1%	-1
O=C(CN1C(=O)NC2(CCSC2)C1=O)NCc1ccccc1 (stereo unspecified)	1.9	-1	.	-2%	1
CCOC(=O)Cc1csc(NC(=O)CSc2nnc(-c3ccc(C)cc3)o2)n1	1.0	8	-7	67%	60
CC(C)NC(=S)NC(=O)/C=C/c1cccc2ccccc12	-1.4	8	-13	2%	7
CC(C)(C)OC(=O)NCCCC1=CC2=CC(=O)C(C)(OC(=O)c3ccco3)C(=O)C2=CO1 (stereo unspecified)	-6.1	.	.	-3%	2
Cc1ccc(S(=O)(=O)NCCC(C)C)cc1[N+](=O)[O-]	1.7	-7	6	-1%	-4
CCNC(=S)NNC(=O)c1cccs1	4.2	3	-27	3%	-2
CCOC(=O)Cc1cc(=O)n2[nH]c(-c3ccc(C)cc3)cc2n1	-0.5	1	-10	3%	4
CC(=O)c1c(C)[nH]c(C(=O)OCC(=O)NCCC2=CCCCC2)c1C	-0.1	.	.	.	-10
O=C(CN1C(=O)NC2(CCCC2)C1=O)Nc1nc2c(F)cc(F)cc2s1	-0.4	.	.	.	-5
O=C(Nc1ccnn1C1CCN(C(=O)c2ccccc2C(F)(F)F)CC1)C1CC1	4.4	.	.	.	-2
CCOC(=O)N1CCN(C(=O)COC(=O)Cc2ccc(Cl)cc2)CC1	-0.6	.	.	.	1
Cc1nc2ccccc2c(=O)n1NC(=O)c1c(O)c2c(n(CC(C)C)c1=O)CCCC2	11	-6	84*	-6%	2
O=C(CCNc1ccc(Cc2ccncc2)cc1)c1ccc([N+](=O)[O-])cc1	7.9	-2	.	?	100
Cc1cccc(N(CC(=O)NC2CCCCC2)C(=O)CCC(=O)Nc2ccccn2)c1	3.3	.	.	0%	3
COC(=O)N/N=C/c1sc(N2CCCCC2)nc1-c1cccs1	-6.0	-2	.	0%	-3
CC(OC(=O)CCc1nc2ccccc2c(=O)[nH]1)C(=O)NCc1ccc2c(c1)OCO2 (stereo unspecified)	-0.8	1	-31	.	1
COc1ccc(OC)c(-c2csc(NC(=O)CSc3nnnn3C)n2)c1	-2.9	.	.	.	-3
Cc1oncc1C(=O)NC(C)C	1.7	3	-31	-9%	-11

6 entries drawn at random from the list so far, as already listed:
SMILES	RecA intein inh	Arbovirus inh	YopH inh	Mtb H37Rv	Mtb betalactam	others
CC(OC(=O)CCc1nc2ccccc2c(=O)[nH]1)C(=O)NCc1ccc2c(c1)OCO2 (stereo unspecified)	-0.8	1	-31	.	1
Cc1cccc(N(CC(=O)NC2CCCCC2)C(=O)CCC(=O)Nc2ccccn2)c1	3.3	.	.	0%	3
COC(=O)N/N=C/c1sc(N2CCCCC2)nc1-c1cccs1	-6.0	-2	.	0%	-3
CC(=O)c1c(C)[nH]c(C(=O)OCC(=O)NCCC2=CCCCC2)c1C	-0.1	.	.	.	-10
O=C(CCNc1ccc(Cc2ccncc2)cc1)c1ccc([N+](=O)[O-])cc1	7.9	-2	.	?	100
O=C(CN1C(=O)NC2(CCCC2)C1=O)Nc1nc2c(F)cc(F)cc2s1	-0.4	.	.	.	-5

Molecules shown so far that have a nitro group on carbon (2):
SMILES	RecA intein inh	Arbovirus inh	YopH inh	Mtb H37Rv	Mtb betalactam	others
Cc1ccc(S(=O)(=O)NCCC(C)C)cc1[N+](=O)[O-]	1.7	-7	6	-1%	-4
O=C(CCNc1ccc(Cc2ccncc2)cc1)c1ccc([N+](=O)[O-])cc1	7.9	-2	.	?	100

Next section.
SMILES	RecA intein inh	Arbovirus inh	YopH inh	Mtb H37Rv	Mtb betalactam	others
OC1(c2nc3ccccc3[nH]2)CCCCC1	-5.0	.	.	.	-12
CC(=O)Nc1ccc(NC(=O)CN2CCN(c3ccccn3)CC2)cc1	-4.7	.	.	.	13
COc1cccc(C(=O)NNC2=CC(=O)CC(C)(C)C2)c1	-0.2	-4	-31	2%	-3
CCc1ccccc1N(C(=O)c1snc(C(N)=O)c1N)C(C(=O)NCC1CCCO1)c1c[nH]c2ccccc12 (stereo unspecified)	-0.8	.	.	.	-2
CCOC(=O)C1=C(N)Oc2cc(O)ccc2C1c1ccc([N+](=O)[O-])cc1 (stereo unspecified)	12	3	.	4%	2
CCc1nnc(NC(=O)CCS(=O)(=O)Cc2ccccc2)s1	1.4	.	.	.	1
Cn1cccc1/C=N/NC(=O)c1ccc[n+]([O-])c1	-0.8	3	.	2%	-2
NC(=O)Nn1c(CCC(=O)O)ccc1-c1ccc(Cl)cc1	2.9	.	.	-3%	-9
Cn1c(=O)oc2cc(S(=O)(=O)Nc3cccc4c3CCCC4)ccc21	-0.6	-5	-9	-4%	-11
COC(=O)CSc1nc2cc3c(cc2cc1C)OCO3	0.0	-2	.	0%	4
O=C(O)c1ccc(N2CCCC2=O)cc1	-1.7	0	-23	-6%	-6
CCCc1cc(=O)[nH]c(N/N=C/C=C\c2ccccc2)n1	-3.0	-3	.	2%	5

The last four entries of the part above lead into the next.
SMILES	RecA intein inh	Arbovirus inh	YopH inh	Mtb H37Rv	Mtb betalactam	others
Cn1c(=O)oc2cc(S(=O)(=O)Nc3cccc4c3CCCC4)ccc21	-0.6	-5	-9	-4%	-11
COC(=O)CSc1nc2cc3c(cc2cc1C)OCO3	0.0	-2	.	0%	4
O=C(O)c1ccc(N2CCCC2=O)cc1	-1.7	0	-23	-6%	-6
CCCc1cc(=O)[nH]c(N/N=C/C=C\c2ccccc2)n1	-3.0	-3	.	2%	5
O=S(=O)(c1cccs1)N1CCN(c2ccccc2Cl)CC1	16	.	.	.	-2
CNC(=O)COC(=O)/C=C/c1cn(-c2ccccc2)nc1-c1ccc(C)o1	-3.1	.	.	9%	61
CSCCC(NC(=O)c1ccccc1)C(=O)N1CC=C(c2ccccc2)CC1 (stereo unspecified)	-0.7	.	.	.	4
CC(C)NC(=O)c1c(CSc2ccc(Cl)cc2)noc1C(=O)NCc1ccccc1	7.4	.	.	.	-11
Nc1nc(NCCCN2CCOCC2)nc(Nc2cccc(Cl)c2)c1[N+](=O)[O-]	2.7	.	.	2%	49
CCOC(=O)CON1C(=O)c2ccccc2C1=O	0.4	3	-4	-4%	-5
CCCNC(=O)CN1C(=O)NC(CC)(c2ccc(F)cc2)C1=O (stereo unspecified)	-2.4	.	.	.	-2
Cc1cccc(S(=O)(=O)Nc2nc3ccccc3nc2NCc2ccco2)c1	1.5	33*	-28	.	-3
O=C1c2ccccc2C(=O)N1CCC(=O)N1CCCc2ccccc21	-1.2	-2	-34	-2%	-9	Arbovirus inh repeat=0
COc1ccc(NC(=O)c2ccco2)cc1NC(=O)c1ccc(C#N)cc1F	-2.4	.	.	.	4
Cc1cccc(NC(=S)N/N=C/c2cccc([N+](=O)[O-])c2)c1	1.3	0	-22	5%	-2
Cc1noc(C)c1COC(=O)COc1cccc2c1OC(C)(C)C2	-0.8	7	-42	0%	44

These rows are one share of the data. The share of hits here may be higher or lower than overall.
